From PubChem
GIRK2 activ: opens human GIRK2 potassium channels. P48051. HEK293-GIRK2 thallium flux, Thallos fluorescence. calls only for hits at 25 µM. 63,000 tested, 0.05% active. AID 1259325;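 active = among the strongest 0.2% of first-round signals and kept after retests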;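 also: first round at about 10 µM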
Target sequence (P48051 whole entry, looked up): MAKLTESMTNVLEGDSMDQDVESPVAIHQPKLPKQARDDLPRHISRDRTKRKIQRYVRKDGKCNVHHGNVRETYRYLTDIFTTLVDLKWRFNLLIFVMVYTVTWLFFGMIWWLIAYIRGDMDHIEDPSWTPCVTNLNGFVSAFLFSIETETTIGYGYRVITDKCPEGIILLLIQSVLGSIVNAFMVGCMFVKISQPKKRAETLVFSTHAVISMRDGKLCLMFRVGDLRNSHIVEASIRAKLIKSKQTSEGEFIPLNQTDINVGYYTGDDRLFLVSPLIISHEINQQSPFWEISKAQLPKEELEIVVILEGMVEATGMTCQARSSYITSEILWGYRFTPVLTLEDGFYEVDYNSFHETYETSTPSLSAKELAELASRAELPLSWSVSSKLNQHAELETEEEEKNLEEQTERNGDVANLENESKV
Calls only; i = inactive. An excerpt. The share of hits here may be higher or lower than overall.

GIRK2 activ | canonical_smiles
i | COc1ccc(OC)c(CNC(=O)c2ccc(Oc3nccnc3N3CCCCC3)cc2)c1
i | COc1ccc2cc(C(=O)N3CCc4nc(NC(=O)c5cccs5)sc4C3)[nH]c2c1
i | COC(=O)COc1ccc2c(=O)c(Oc3ccc(C(=O)OC)cc3)coc2c1
i | COc1ccccc1CNC(=O)C(=O)NCC(C)(O)CCc1ccccc1 (centres undefined)
i | Cn1ccnc1SCC1CCN(S(=O)(=O)C2CC2)CC1
i | Cc1ccccc1OCC(=O)NCCN1CCN(c2ccc(Cl)cc2)CC1
i | CCc1ccc(NC(=O)Cn2cccc(S(=O)(=O)N3CCCCC3)c2=O)cc1
i | Cc1cc(C)cc(NC(=O)CSc2nccn(-c3ccc(C)c(C)c3)c2=O)c1

Entries from the list above containing an aryl thioether with sulfur outside any ring (2):
GIRK2 activ | canonical_smiles
i | Cn1ccnc1SCC1CCN(S(=O)(=O)C2CC2)CC1
i | Cc1cc(C)cc(NC(=O)CSc2nccn(-c3ccc(C)c(C)c3)c2=O)c1

The list goes on:
GIRK2 activ | canonical_smiles
i | COc1ccc(CNC(=O)c2sccc2S(=O)(=O)N2CCN(c3ccc(F)cc3)CC2)cc1
i | C=C(C)Cn1c(=O)c2c(nc3n(C(C)CC)c(C)cn23)n(C)c1=O (centres undefined)
i | COc1ccc(F)cc1S(=O)(=O)N(Cc1ccccn1)CC(F)(F)F
i | CCNC(=O)C(=O)NCCC1CCCCN1S(=O)(=O)c1c(C)cc(C)cc1C (centres undefined)
i | Cc1cc(C(O)CCNS(=O)(=O)c2ccc(OC(F)(F)F)cc2)c(C)o1 (centres undefined)
i | O=C(NCC1(c2ccc(F)cc2)CCOCC1)NC1CCCCCC1
i | COc1cccc(-c2nc(C#N)c(N3CCN(C(=O)c4ccccc4Cl)CC3)o2)c1
i | CCOC(=O)Cn1c(=O)c2c(nc3n(-c4ccccc4OC)c(-c4ccccc4)cn23)n(C)c1=O
i | COc1ccc(C(=O)NCCS(=O)(=O)NCCCOC(C)C)cc1
i | CCOc1ccc(/C=C/C(=O)N2CCC(C)CC2)cc1OC
i | COc1ccc2c(c1)c(C1=C(c3c[nH]c4ccccc34)C(=O)NC1=O)cn2CCCN(C)C
i | CCCc1cc(NCCCN2CCOCC2)n2nc3nc(C)cc(C)c3c2n1
i | CCCCCn1c(=O)c2c(nc3n2CC(C)CN3c2ccc(OC)cc2OC)n(C)c1=O (centres undefined)
i | NS(=O)(=O)c1ccc(CCN=Cc2ccc(-c3ccc(SC(F)F)cc3)o2)cc1
i | Cc1ccc(CNC(=O)c2ccc(-n3ccnc3SCC(=O)NCCc3ccccc3)cc2)o1
i | Cc1ccccc1-n1c(C)cn2c3c(=O)n(CC(N)=O)c(=O)n(C)c3nc12
i | Cn1cc(CC(=O)NCC#CCOc2ccccc2C(N)=O)c2ccccc21
i | COc1cccc(S(=O)(=O)NCc2ccc(C(=O)O)cc2)c1
i | CC(C)N1CCc2c(sc(NC(=O)C3CC3)c2-c2nc3ccccc3s2)C1
i | CCOc1ccc(NC(=O)COc2cc(C)nc(N3CCN(c4ccccc4)CC3)n2)cc1
i | COc1cccc2sc(N(Cc3ccccn3)C(=O)c3cc(C)nn3C)nc12
i | NC(=O)Cc1ccc(NC(=O)Nc2cccc(C(F)(F)F)c2)cc1
i | CC(=O)NC1=NN(C(C)=O)C2(S1)C(=O)N(CCCOc1ccccc1)c1c(C)cccc12 (centres undefined)
i | COc1ccccc1OCC#CCNS(=O)(=O)c1ccc2ccccc2c1
i | C#CCOCC1CCN(C(=O)Nc2cccc(C)c2)CC1
i | CCOC(=O)N1CCC(NC(=O)CN2CCN(c3ccc4c(c3)OCO4)C2=O)CC1
i | CN(C)S(=O)(=O)c1ccc2c(c1)/C(=C\CCN1CCNCC1)c1ccccc1S2
i | Cc1nnc(CNC(=O)c2nnn(-c3ccc(Cl)cc3)n2)o1
i | COc1ccccc1NC(=O)N1CCN(c2c(C)nn(C3CCS(=O)(=O)C3)c2C)CC1 (centres undefined)
i | O=C(c1cccs1)N1CCN(c2ccc3nnc(-c4ccco4)n3n2)CC1
i | O=S(=O)(Nc1cnc(Oc2ccccc2)nc1)c1ccc(Cl)cc1
i | O=c1cccnn1CCN1CCN(S(=O)(=O)c2ccc(Br)cc2)CC1
i | Cc1cn2c3c(=O)n(CCCc4ccccc4)c(=O)n(C)c3nc2n1CCN(C)C
i | Cc1ccc(NC(=O)Cn2c(C)cc(C)c(-c3nc(-c4ccc(F)cc4)no3)c2=O)cc1
i | Cc1c(C(=O)Nc2nnc(-c3ccsc3)o2)cnn1-c1ccccc1
i | C#CCn1c(=NC(=O)c2cc(C)no2)sc2cc(C(=O)OCC)ccc21
i | CCCCCn1c(=O)c2c(nc3n2CCCN3c2cc(C)ccc2OC)n(C)c1=O
i | COc1ccc(-c2cc(N3CCN(C(=O)c4snnc4C)CC3)ncn2)cc1
i | O=C(/C=C/c1ccccc1)Nc1nc2c(s1)CN(S(=O)(=O)C1CC1)CC2
i | COc1ccc(-c2csc3c(=O)[nH]c(N4CCN(c5cccc(Cl)c5)CC4)nc23)cc1
i | COc1ccc(Br)c(C(=O)NC2CNC(=O)C2)c1 (centres undefined)
i | O=C(CCS(=O)(=O)Cc1ccccc1)Nc1ccc(Cl)cc1
i | NC(=S)Nc1cccnc1
i | CC(=O)NS(=O)(=O)c1ccc(NC(=O)CN(C)c2nc3c(C)ccc(C)c3s2)cc1
i | COc1ccc(OC)c(-c2csc(-c3nnn(-c4ccccc4)c3N)n2)c1
i | Cc1c(C(=O)NCCO)nnn1-c1ccc2noc(-c3ccccc3)c2c1
i | O=C(O)CCCCCCC1C(=O)N(Cc2ccccc2)C(=O)N1NCC(O)C1CCCCC1 (centres undefined)
i | Cn1nc(-c2ccccc2)cc1C(=O)NCC(F)(F)F
i | COC(=O)c1cc(Nc2ccccc2OC)c2cc(Cl)ccc2n1
i | CCN1CCC(CC(=O)Nc2n[nH]c3nc(-c4cccs4)c(Br)cc23)CC1
i | COc1cccc(CN(c2ccc(Cl)cc2)S(=O)(=O)c2cccn3c(C)nnc23)c1
i | O=C(CSc1ccncc1)Nc1cc(N2CCOCC2)ncn1
i | CCCn1c(=O)c2c(nc3n(-c4ccccc4O)c(C)cn23)n(C)c1=O
i | Cc1ccc(NC(=O)Cn2cccc(S(=O)(=O)N3CCC(C)CC3)c2=O)c(Cl)c1
i | CC(Cn1nc(-c2ccco2)ccc1=O)C(=O)Nc1ccc(-c2cn3ccsc3n2)cc1 (centres undefined)
i | CC(=O)N1N=C(c2cccc(O)c2)CC1c1cn(-c2ccccc2)nc1-c1ccccc1 (centres undefined)

More entries follow.
GIRK2 activ | canonical_smiles
i | O=C(Nc1cc(F)c(F)c(F)c1)c1cn(CC(O)c2cccs2)nn1 (centres undefined)
i | CCc1cnc(NC(=O)CSc2nnnn2-c2ccc(C(C)C)cc2)s1
i | N#Cc1cccc(NC(=O)Cn2cccc2-c2nc(-c3ccc(Br)cc3)no2)c1
i | COc1ccc(-n2c(-c3ccc(F)cc3)cn3c4c(=O)n(C)c(=O)n(C)c4nc23)cc1
i | Cc1cccc(NC(=O)Nc2cc(N3CCCCC3)ncn2)c1
i | COC(=O)c1ccccc1NC(=O)C1OC2OC(C)(C)OC2C2OC(C)(C)OC12 (centres undefined)
i | COC(=O)c1ccccc1NC(=O)C12CCC(C)(C(=O)C1Br)C2(C)C (centres undefined)
i | O=C(Cc1cccs1)NCCOc1ccc2nnc(-c3ccc(F)cc3)n2n1
i | Cc1c(C(=O)NCCSc2nncn2C)nnn1-c1nc2c(s1)CCCC2
i | CCOc1cccc(N2CCn3c2nc2c3c(=O)n(C)c(=O)n2C)c1
i | Nc1cc(-c2ccccc2)nn(CC(=O)NCc2cccs2)c1=O
i | Cc1cc(C(F)(F)F)nc(CCNC(=O)Cc2ccc(F)cc2)n1
i | O=C(Nc1ccc(Cl)c(N2CCCS2(=O)=O)c1)c1ccco1
i | Cc1nn(C2CCS(=O)(=O)C2)c(C)c1N1CCN(C(=O)c2cc(=O)c3ccccc3o2)CC1 (centres undefined)
i | Cc1ccnc(Nc2cc(N3CCN(C(=O)COc4ccc(Cl)cc4)CC3)ncn2)c1
i | COc1ccccc1OCC#CCNS(=O)(=O)Cc1ccc(C(F)(F)F)cc1
i | O=C(CSc1ccc(F)cc1)N1CCN(S(=O)(=O)C2CC2)CC1
i | Cc1ccc(NS(=O)(=O)c2n[nH]c(C)c2C(=O)Nc2ccccc2)cc1
i | COc1ccc(-c2cnc(SCC(N)=O)n2-c2ccc(Cl)cc2)cc1
i | O=C(c1cccs1)N1CCN(c2ccc(N3CCCCC3)nn2)CC1
i | Cc1nc(-c2cccc(NC(=O)C(c3ccccc3)n3cccc3)c2)cs1 (centres undefined)
i | CS(=O)(=O)N1CCC(C(=O)NCCn2ncc3c(NCc4ccco4)ncnc32)CC1
i | Cc1cc(NC(=O)C(=O)NCC(c2cccn2C)N2CCc3ccccc3C2)no1 (centres undefined)
i | CCOc1ccccc1-n1nnc2c(=O)n(Cc3nc(-c4cccc(C(F)(F)F)c4)no3)cnc21

Part of the list above in order of number of heavy atoms, falling:
GIRK2 activ | canonical_smiles
i | CCOc1ccccc1-n1nnc2c(=O)n(Cc3nc(-c4cccc(C(F)(F)F)c4)no3)cnc21
i | Cc1nn(C2CCS(=O)(=O)C2)c(C)c1N1CCN(C(=O)c2cc(=O)c3ccccc3o2)CC1 (centres undefined)
i | Cc1ccnc(Nc2cc(N3CCN(C(=O)COc4ccc(Cl)cc4)CC3)ncn2)c1
i | Cc1cc(NC(=O)C(=O)NCC(c2cccn2C)N2CCc3ccccc3C2)no1 (centres undefined)
i | COc1ccccc1OCC#CCNS(=O)(=O)Cc1ccc(C(F)(F)F)cc1
i | Cc1nc(-c2cccc(NC(=O)C(c3ccccc3)n3cccc3)c2)cs1 (centres undefined)
i | Cc1ccc(NS(=O)(=O)c2n[nH]c(C)c2C(=O)Nc2ccccc2)cc1
i | COc1ccc(-c2cnc(SCC(N)=O)n2-c2ccc(Cl)cc2)cc1
i | Cc1cc(C(F)(F)F)nc(CCNC(=O)Cc2ccc(F)cc2)n1
i | O=C(CSc1ccc(F)cc1)N1CCN(S(=O)(=O)C2CC2)CC1
i | O=C(Nc1ccc(Cl)c(N2CCCS2(=O)=O)c1)c1ccco1

(cont.)
GIRK2 activ | canonical_smiles
i | NC(=O)c1cnn2c1OCCC2
i | O=C(c1ccc(Br)o1)N1CCN(Cc2nc(-c3ccco3)cs2)CC1
i | O=C(c1ccc2ncsc2c1)N1CCCC(c2nnc(-c3ccccc3F)s2)C1 (centres undefined)
i | O=C(Nc1nc2ccccc2s1)C1CCN(c2ccc(-c3ccco3)nn2)CC1
i | Cc1cc(NC(=O)c2ccc(F)c(F)c2)n(-c2nc(-c3cccs3)cs2)n1
i | O=C(c1cncc(Br)c1)N1CC(c2nc(-c3ccccn3)no2)C1
i | CCOc1ccccc1NC(=O)c1cc(=O)c(OC)co1
i | COc1ccc(C2(CNC(=O)c3ccc4nc[nH]c4c3)CCOCC2)cc1
i | CC(=O)Oc1ccc2c(c1)O/C(=C\c1cc(Br)cc3c1OCOC3)C2=O
i | COc1ccc(S(=O)(=O)N(C)CCCC(=O)O)cc1N(C)S(C)(=O)=O
i | COc1ccc(S(=O)(=O)NCCCN(C)C)cc1N(C)S(C)(=O)=O
i | CCOc1ccc(NC(=O)CSc2nnc(C)c3cnn(-c4ccc(F)cc4)c23)cc1
i | CS(=O)(=O)C1CCN(S(=O)(=O)c2ccc(F)c(Cl)c2)C1 (centres undefined)
i | COc1ccc(CNC(=O)N2CC(c3nc(-c4cccc(Cl)c4)no3)C2)cc1
i | O=C(NCCN1CCN(c2ccccc2)CC1)C(=O)NCc1ccc2c(c1)OCO2
i | Cc1cc(C)c(NC(=O)Cn2cccc(S(=O)(=O)N3CCCC3)c2=O)c(C)c1
i | COc1ccc(F)cc1S(=O)(=O)NCc1ccc(C(O)c2cccs2)s1 (centres undefined)
i | OCCN(Cc1ccccc1)CC(O)COc1ccc(Br)cc1Br (centres undefined)
i | Cc1nc(Nc2ccc(NC(=O)Nc3ccc(F)cc3F)cc2)cc(-n2ccnc2)n1
i | COc1ccc(C)cc1NC(=O)CSC1=NNC2C3CC(c4ccccc4)NN3C=CN12 (centres undefined)
i | COc1ccc(/C=C/C(=O)N2CCc3nc(NC(=O)c4ccco4)sc3C2)cc1OC
i | Cc1noc(NS(=O)(=O)c2ccc(N/C=C(\C#N)c3nc4ccccc4s3)cc2)c1C
i | COc1ccc(C)cc1S(=O)(=O)Nc1ccc2c(c1)N(S(C)(=O)=O)CCC2
i | Cc1ccc(CNC(=O)CN2CN(c3cccc(F)c3)c3ncccc3S2(=O)=O)cc1
i | Cc1nnsc1C(=O)N1CCC(Oc2ccc(C(F)(F)F)cn2)CC1
i | O=C(NCc1ccc(-c2nccs2)cc1)Nc1ccc2c(c1)OCO2
i | COc1ccc(OC)c(N2C(=NC(C)=O)SC3CS(=O)(=O)CC32)c1 (centres undefined)
i | Cc1cc(NS(=O)(=O)c2ccc(N)cc2)no1
i | O=C(Nc1nc(C(=O)NCCn2nc(-c3ccco3)ccc2=O)co1)c1ccccc1
i | Cc1ccc(C(=O)NC2CCCCC2N2C(=O)CSC2=O)cc1C (centres undefined)
i | COC(=O)c1sccc1S(=O)(=O)NCc1nn(C)c2c1CCCC2
i | Cn1cc(-c2ccco2)nc1CCNC(=O)c1ccc2c(c1)OCO2
i | O=C(OCC1OC(Oc2ccc(O)cc2COC(=O)C2(O)C(O)CCC(=O)C2O)C(O)C(O)C1O)c1ccccc1 (centres undefined)
i | COC(=O)CCn1c(=O)c2c(nc3n(-c4ccc(F)cc4)c(C)c(C)n23)n(C)c1=O
i | CCN(CC)S(=O)(=O)c1ccc(C(=O)NCCC(O)c2cccc3ccccc23)cc1 (centres undefined)
i | CCOc1ccc(-c2cc3c(=O)n(CC(=O)Nc4cc(Cl)ccc4C)ccn3n2)cc1
i | O=C(Nc1nc2c(Br)cccc2s1)Nc1c(F)cccc1F
